Assay outcomes (PubChem)
VDR inh: vitamin D3 receptor (human) inhibition | 400,000 compounds, 0.93% hits | Potency, µM, for inactives: max response, negative = inhibition, hits mostly inhibitors | AID 504847 | VDR-SRC2-3 peptide fluorescence polarization, 2 h; active = well fitted inhibition curve with a large enough effect; inconclusive = small, poorly fitted or top-dose-only effect, or another doubt; inactive = no such curve, though single readings can be large or run the other way; note: series mostly up to about 120 µM
Target sequence (P11473 whole entry, looked up): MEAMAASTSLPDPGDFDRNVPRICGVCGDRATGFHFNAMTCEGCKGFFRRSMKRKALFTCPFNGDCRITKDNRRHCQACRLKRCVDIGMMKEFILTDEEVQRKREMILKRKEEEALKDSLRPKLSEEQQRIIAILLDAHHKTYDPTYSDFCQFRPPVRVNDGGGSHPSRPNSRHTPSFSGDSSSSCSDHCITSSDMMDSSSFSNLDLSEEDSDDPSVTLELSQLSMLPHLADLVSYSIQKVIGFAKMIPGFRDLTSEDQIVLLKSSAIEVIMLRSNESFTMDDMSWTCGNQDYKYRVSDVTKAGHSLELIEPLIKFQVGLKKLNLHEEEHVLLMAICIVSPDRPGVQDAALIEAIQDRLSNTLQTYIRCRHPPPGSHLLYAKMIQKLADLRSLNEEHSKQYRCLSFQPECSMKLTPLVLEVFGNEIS
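Reagent solutions, kept cold and dark, are dispensed first; compounds are then pinned in at 23 nl, plates briefly spun, and incubated 2 h at ambient temperature. Inhibition of VDR–SRC2-3 peptide binding is read by fluorescence polarization.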
* marks the source's active call; other numbers are inactive results; u = inconclusive; [ ] = another dose, or the depositor's remark. % is set by controls: 0 for no effect and ±100 for the full control effect; potency is the fitted concentration of half-maximal effect. An excerpt; the hit share may differ from the screen's.

| Compound | VDR inh |
| --- | --- |
| O=C(NCCc1csc(-c2ccc(F)cc2)n1)c1ccco1 | 12.4% |
| C=CCn1c(COc2ccccc2F)nnc1SCC(=O)Nc1cc2oc3ccccc3c2cc1OC | 3.3% |
| COc1cccc(CN(C)Cc2cc(=O)oc3cc(O)c(Cl)cc23)c1 | 13.9% |
| COc1cc(Cl)ccc1OCc1cc(C(=O)N(C)CC2CCCCO2)no1 (stereo not drawn) | -13.3% |
| N#Cc1cc2c(ccc3ccccc32)oc1=O | u |
| Cc1ccc(SCC(=O)Nc2cccc(S(=O)(=O)N3CCOCC3)c2)cc1C | 41.6%[activator] |
| O=C(c1ccccc1)c1cccc[n+]1[O-] | -16.3% |
| COc1ccc(C)cc1S(=O)(=O)Nc1ccc2c(c1)OCCO2 | 7.7% |
| CCC1=NN(C(=O)Cc2ccc(OC)cc2)C(O)(C(F)(F)F)C1 (stereo not drawn) | 19.6% |
| Cc1nc(NCC2CCCO2)nc2c1C(=O)CC(C)(C)C2 (stereo not drawn) | 0.9% |
| Cc1ccc(O)c(NC(=O)CCSc2nc(-c3ccco3)cc(C(F)(F)F)n2)c1 | -8.6% |
| O=C(Nc1ccccc1Cl)c1ccc(=O)[nH]n1 | -13.7% |
| COc1ccc(NC(=O)CCn2c(=S)[nH]c3ccccc3c2=O)cc1OC | 12.7% |
| CCN(CC(=O)Nc1ccc2c(c1)CCC2)Cc1nc2ccccc2c(=O)[nH]1 | -1.3% |
| CC(C)C(NC(=O)c1c(F)cccc1F)C(=O)NCc1ccncc1 (stereo not drawn) | -20.8% |
| Cc1ccc(S(=O)(=O)N2CCCCC2)cc1NC(=O)COC(=O)c1ccc(=O)[nH]c1 | -12.3% |
| CC(=O)Nc1ccc(OCC(O)Cn2c(C)nc3ccccc32)cc1 (stereo not drawn) | 8.1% |
| Cc1ccc2[nH]c(=O)c(C3C(C#N)=C(N)Oc4c3ccc3cccnc43)cc2c1 (stereo not drawn) | -9.3% |
| O=C(/C=C1\C(=O)Nc2ccccc21)/C=C1\C(=O)Nc2ccccc21 | 56.2µM* |
| CS(=O)(=O)N(CC(=O)O)c1ccc(Oc2ccccc2)cc1 | -24.7% |
| COc1ccc(CCNC(=O)Cn2c(=O)c3cccn3c3ccc(F)cc32)c(OC)c1 | 6.6% |
| S=c1[nH]nc(COc2ccccc2)n1/N=C/C(Cl)=C/c1ccccc1 | u |
| Cc1ccc(S(=O)(=O)c2nnn3c2nc(NC(C)C)c2sccc23)cc1 | 23.7% |
| CCN(CC(=O)NCc1ccc(Cl)cc1)C(=O)COc1ccc(Cl)cc1Br | -2.3% |
| COc1ccc(NC(=O)CSc2nc3ccccc3nc2N2CCCC2)cc1 | -1.6% |
| CCOc1ccc(CSC2=NCCN2)cc1[N+](=O)[O-] | 6.4% |
| COc1ccccc1CNC(=O)CCn1c(=O)c2ccccc2n(CC(=O)Nc2cc(Cl)ccc2C)c1=O | -14.9% |
| COc1ccc(NC(=O)CS(=O)c2ccc(F)cc2)cc1 (stereo not drawn) | -6.1% |
| COc1ccc(CNC(=O)[C@H](Cc2c[nH]c3ccccc23)NC(C)=O)cc1OC | 17.3% |
| Cc1ccccc1OC(C)C(=O)NCc1cccnc1 (stereo not drawn) | 2.5% |

Seven entries already listed, sorted by heavy-atom count, descending.
| Compound | VDR inh |
| --- | --- |
| COc1ccccc1CNC(=O)CCn1c(=O)c2ccccc2n(CC(=O)Nc2cc(Cl)ccc2C)c1=O | -14.9% |
| Cc1ccc(O)c(NC(=O)CCSc2nc(-c3ccco3)cc(C(F)(F)F)n2)c1 | -8.6% |
| CCN(CC(=O)Nc1ccc2c(c1)CCC2)Cc1nc2ccccc2c(=O)[nH]1 | -1.3% |
| CCN(CC(=O)NCc1ccc(Cl)cc1)C(=O)COc1ccc(Cl)cc1Br | -2.3% |
| CC(C)C(NC(=O)c1c(F)cccc1F)C(=O)NCc1ccncc1 (stereo not drawn) | -20.8% |
| COc1ccc(NC(=O)CS(=O)c2ccc(F)cc2)cc1 (stereo not drawn) | -6.1% |
| Cc1ccccc1OC(C)C(=O)NCc1cccnc1 (stereo not drawn) | 2.5% |

The results go on.
| Compound | VDR inh |
| --- | --- |
| O=C(CCc1ccccc1)NNc1cc(N2CCCCC2)nc(N2CCCCC2)n1 | 10.4% |
| ClCCCc1cn(C[C@H]2CC[C@@H]([C@@H]3CC[C@H](Cn4cc(CCCCl)nn4)O3)O2)nn1 | 3.6% |
| COc1ccccc1CCNC(=O)Cn1c(=O)oc2ccccc21 | -8.2% |
| O=C(CCN1C(=O)C2C3CCC(C3)C2C1=O)Nc1ccc([N+](=O)[O-])cc1 (stereo not drawn) | -16.4% |
| NNC(=O)C(=O)NCCCN1CCOCC1 | 1.0% |
| CC(=O)c1ccc(NC(=O)c2cc(-c3ccc4c(c3)OCO4)on2)cc1 | 1.0% |
| CCOC(=O)c1nn(-c2ccc(OCC)cc2)c2nc(-c3ccco3)c(C#N)c(=O)n12 | 3.6% |
| OCc1nc2nc(Cl)c(Cl)nc2[nH]1 | -31.1% |
| CNc1ncnc2sc(-c3ccccc3)cc12 | 1.0% |
| Cc1ccc2[nH]c(=O)c3cc(C(=O)N(C)c4ccccc4C)sc3c2c1 | -8.8% |
| Cn1cnnc1SCC(=O)NCc1ccccc1 | -25.7% |
| O=C(c1ccc(OC2CCN(CCc3ccccc3)CC2)cc1)N1CCCC(CO)C1 (stereo not drawn) | -10.9% |
| COc1ccc(-c2noc(CCC(=O)N3CCN(c4ccc(F)cc4)CC3)n2)cc1 | -4.2% |
| COCCCNC(=S)NCCNc1nc2cc(C)cc(C)c2cc1C#N | -2.4% |
| O=[N+]([O-])c1cc(/C=N/N/C(=N/c2ccccn2)c2ccccn2)ccc1O | -10.5% |
| Cc1cccc(NC(=O)c2ccc(C3SCC(=O)N3CCc3ccccc3)cc2)c1C (stereo not drawn) | -13.8% |
| O=C(NCc1ccc(Cl)cc1)N1CCOCC1 | -1.9% |
| CCCNc1c(NC(=O)C2CCC(C)CC2)c(=O)oc2ccccc12 (stereo not drawn) | 1.1% |
| CCOC(=O)c1ccc(NC(=O)C2CCN(S(=O)(=O)c3ccc4c(c3)CCCC(=O)N4)CC2)cc1 | 1.0% |
| Cc1cccc(C(=O)Nc2ccc(C(=O)Nc3ccc(O)cc3)cc2)c1 | 8.9% |
| CCSc1ccccc1-c1nc(-c2ccncc2)no1 | -22.9% |
| O=C(Cn1cnc2c(nnn2-c2cccc(Cl)c2)c1=O)N1CCOCC1 | 8.5% |
| Cc1nc2ccc(S(=O)(=O)N(C)CC(=O)N3CCc4ccccc43)cc2s1 | -20.3% |
| COc1ccc(CN2CCC(=O)N([C@H](CO)CC(C)C)CC2)cc1OC | 5.9% |
| c1ccc2oc(SCc3nc4ccccc4s3)nc2c1 | 6.1% |
| COC(=O)C(Cc1ccc(O)cc1)NC(=O)Cn1cc(C)c(=O)[nH]c1=O (stereo not drawn) | 3.8% |
| CC(Sc1nncs1)C(=O)Nc1ccc2c(c1)OCCO2 (stereo not drawn) | 5.6% |
| C=C(C(=O)c1ccccc1)C(CC(=O)c1ccccc1)c1ccccc1 (stereo not drawn) | u |
| CCCCCC(=O)Nc1ccc(N2CCN(C(=O)c3ccccc3)CC2)cc1 | 3.1% |
| O=C(NCc1ccco1)c1cnn2c(C(F)F)cc(-c3ccccc3)nc12 | -7.7% |

Arranged by the number under VDR inh (rising): three from the list above.
| Compound | VDR inh |
| --- | --- |
| COc1ccc(NC(=O)CS(=O)c2ccc(F)cc2)cc1 (stereo not drawn) | -6.1% |
| COc1ccc(CCNC(=O)Cn2c(=O)c3cccn3c3ccc(F)cc32)c(OC)c1 | 6.6% |
| COc1ccc(C)cc1S(=O)(=O)Nc1ccc2c(c1)OCCO2 | 7.7% |

Additional entries:
| Compound | VDR inh |
| --- | --- |
| CCOc1ccc(S(=O)(=O)NCCC(=O)OCC(=O)c2ccc(NC(C)=O)cc2)cc1 | 0.9% |
| Cc1ccc(C(=O)NCc2ccc(N(C)C)cc2)cc1NC(=O)c1nsc2ccccc12 | 2.6% |
| Cc1ccc(C(CNC(=O)C(=O)Nc2ccc3c(c2)OCCO3)N2CCN(C)CC2)cc1 (stereo not drawn) | -12.8% |
| COc1ccc(NC(=O)CSc2n[nH]c(=O)n2C2CC2)cc1OC | 0.9% |
| COC(=O)C(C(=O)Nc1cc(C)on1)C1CCCCCC1 (stereo not drawn) | -8.2% |
| O=C(Nc1ccccc1Oc1ccccc1)c1cccc([N+](=O)[O-])c1 | 2.8% |
| Clc1ccc(CN2CCN(/N=C/c3ccco3)CC2)cc1 | -18.2% |
| COC(=O)CN1C(=O)COc2ccc(S(=O)(=O)NCc3ccc(Cl)cc3)cc21 | -16.3% |
| O=C(CNc1ccccc1)N/N=C/c1cc([N+](=O)[O-])ccc1N1CCCC1 | 23.0% |
| O=C1CC2(CCCCC2)Oc2ccc(Cl)cc21 | 14.3% |
| COc1cc(OC)c(NC(=O)Cc2ccc(-n3c(C)nc4cccnc43)cc2)cc1Cl | 1.5% |
| CCOC(=O)Cn1c(=O)cc(C(F)(F)C(F)(F)F)c2c(C)nn(CC)c21 | 1.0% |
| NC(=O)c1ncn([C@@H]2O[C@H](CNCc3ccc(-c4cc(C(F)(F)F)ccc4Cl)o3)[C@@H](O)[C@H]2O)n1 | -11.1% |
| COc1ccc(NC(=O)[C@H](COCc2ccccc2)NC(=O)OC(C)(C)C)cc1 | -9.1% |
| CC1CCCN(C(=O)c2ccc(Br)c(S(=O)(=O)N3CCOCC3)c2)C1 (stereo not drawn) | 7.3% |
| Cc1ccc(OCCN2C(=O)c3ccccc3C2=O)cc1 | 10.1% |
| O=C(Nc1ccc(N2CCCC2=O)cc1)c1cncc(Br)c1 | -2.0% |
| COc1ccc(C(=O)c2c[nH]c(C(=O)N=CN(C)C)c2)cc1 | 16.3% |
| O=C(CCCc1cccs1)Nc1ccc2c(c1)OCO2 | -13.1% |
| Clc1ccc(Cc2ccc(Cl)nn2)c(Cl)c1 | -26.9% |
| O=C(Nc1cccc(S(=O)(=O)N2CCCCC2)c1)C1CC(=O)N(Cc2ccco2)C1 (stereo not drawn) | 2.5% |
| CCc1ccc(-c2nc(CN3CCC(C(=O)NCCc4ccc(Cl)cc4)CC3)c(C)o2)cc1 | -11.5% |
| C[C@H]1CN=C2N(CCNC(=O)CCC3CCCCC3)[C@H](Cc3ccc(O)cc3)CN21 | -24.1% |
| CCC(Sc1nc(C)cc(=O)[nH]1)C(=O)Nc1nc(-c2ccccc2)cs1 (stereo not drawn) | 5.4% |
| CN(Cc1ccc(OC(F)F)cc1)Cc1nc2c(Br)cc(Br)cc2c(=O)[nH]1 | -10.7% |
| CCOc1ccccc1N1CCN(c2ncnc3scc(-c4ccc(OC)cc4)c23)CC1 | 14.2% |
| C=CCC[C@H](Cc1ccc(F)cc1)C(=O)OC[C@@H](NC(=O)[C@H](CC=C)CC(=O)NCCO)c1ccccc1 | -20.4% |
| Cc1ccc2c(C)nc(N/C(N)=N/S(=O)(=O)c3ccc([N+](=O)[O-])cc3)nc2c1 | -9.9% |
| CC(=O)N1N=C(c2ccco2)CC1c1ccc(Br)cc1 (stereo not drawn) | -1.9% |
| O=C(O)/C=C/C(=O)N1CCN(C(=O)/C=C/C(=O)O)CC1 | -10.4% |
| COc1ccc(OC)c(NC(=O)Cn2c(CCC(=O)O)ccc2-c2cccs2)c1 | -18.4% |
| Nc1ccccc1C(=O)N1O[C@@H]2C=C[C@H]1C2 | u |
| O=C(O)c1ccc(N/N=C/c2cn(-c3ccccc3)nc2-c2cccs2)cc1 | -24.3% |
| COc1ccc(C(=O)NC2CC3CCCC(C2)N3CC(C)C)cc1 (stereo not drawn) | 10.9% |
| COc1ccc(-c2nnc(OCc3ccccc3)c3ccccc23)cc1 | -3.8% |
| Cc1cc(C)n2cc(CSc3ncccc3C(=O)O)nc2n1 | -2.1% |
| O=C(CCn1c(=O)c2cccn2c2ccc(F)cc21)NCCc1ccc(Cl)cc1 | 1.0% |
| Cc1c2ccccc2cc[n+]1CCCS(=O)(=O)[O-] | -8.2% |
| O=c1onc(-c2ccc(Cl)cc2Cl)n1-c1cccnc1 | -4.8% |
| CCn1c(SCC(=O)NCCCN2CCCC2=O)nnc1-c1cccc(C)c1 | 8.9% |
| COCCn1c(SCC(=O)Nc2ccc(Br)cc2)nc2c([nH]c3ccccc32)c1=O | 1.0% |
| CCCn1c(=O)c2[nH]c(-c3ccc(OCC(=O)Nc4ccc(C(C)=O)cc4)cc3)nc2n(CCC)c1=O | 4.6% |
| O=C(NCC1(c2ccccc2)CCCC1)c1ccccc1 | -1.9% |
| O=C1CN(C(=O)COc2ccc(Cl)cc2)C(c2ccc(F)cc2)c2cc(Cl)ccc2N1 (stereo not drawn) | -11.6% |
| COc1ccc(OC)c(NC(=O)CC(=O)Nc2ccc3nc4n(c(=O)c3c2)CCCCC4)c1 | 8.7% |
| COc1cc(CNn2cn[nH]c2=S)cc(Cl)c1OCc1ccc(F)cc1 | -3.8% |
| COc1ccccc1C(=O)NC(=S)Nc1cccc2cc(O)ccc12 | 6.8% |
| O=C(COc1ncnc2cc([N+](=O)[O-])ccc12)NC1CCCCC1 | -4.9% |
| CC(=O)Nc1nonc1-c1nc2ccccc2n1CC1CC1 | 24.1% |
| C[C@]12CCC3C(CC=C4C[C@@H](O)CC[C@@]43C)C1CCC2[C@]1(C)CCC(=O)O1 (stereo partly drawn) | 1.3% |
| COc1ccc(CNC(=O)CCCC(=O)Nc2cccc(Br)c2)cc1 | -21.0% |
| CN(CC(=O)NCc1ccc2c(c1)OCO2)S(=O)(=O)c1ccc(F)cc1 | 6.8% |
| O=C(NCC1CC1)C1(C(F)(F)F)C/C(=C\Cc2ccccc2)CCCO1 (stereo not drawn) | u |
| CCS(=O)(=O)c1nc(S(=O)(=O)c2ccc(C)cc2)c(N2CCC3(CC2)OCCO3)s1 | 2.8% |
| O=C(c1cccc(S(=O)(=O)N2CCOCC2)c1)N1CCN(Cc2ccc3c(c2)OCO3)CC1 | -7.7% |
| N#CCn1cnc2sc(-c3ccccc3)cc2c1=O | -16.0% |
| Cc1oc2cc3oc(=O)c(CCC(=O)NCCN4CCOCC4)c(C)c3cc2c1C | -2.4% |
